Screens from PubChem BioAssay.
GLA inh pH 4.5 – inhibitors of human alpha-galactosidase A at pH 4.5 | P06280 | purified enzyme, 4-MU-alpha-Gal fluorescence, pH 4.5 | activity change, negative = inhibition, % at 105 µM | 230,000 tested, under 10 active; inconclusive = small, poorly fitted or top-dose-only inhibition, or a rising curve; inactive = flat fitted curve, though single readings scatter; no compound was filed as active;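 also: 0% = full activity with enzyme and -100% = basal without enzyme; dose as in the result columns while the protocol names 77 µM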
Rango complex inh – prevents formation of the Rango-importin beta complex; Potency, µM (titrated, usually from 92.2 µM), for the others: at the highest dose inhibition of complex formation; Rango CFP/YFP FRET sensor + importin beta, 45 min; actives 0.031% (n = 340,000); Q14974; active = rising FRET ratio curve, often small or poorly fitted; inconclusive = mostly compound fluorescence or quenching in the first reads; inactive = flat curves in all reads;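 also: potency is read from the fitted curve at half-maximal effect; 0% = DMSO wells and 100% = buffer wells lacking importin beta; nearly all actives have a fitted effect of over 15% in size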
Target sequence (Q14974 whole entry, looked up): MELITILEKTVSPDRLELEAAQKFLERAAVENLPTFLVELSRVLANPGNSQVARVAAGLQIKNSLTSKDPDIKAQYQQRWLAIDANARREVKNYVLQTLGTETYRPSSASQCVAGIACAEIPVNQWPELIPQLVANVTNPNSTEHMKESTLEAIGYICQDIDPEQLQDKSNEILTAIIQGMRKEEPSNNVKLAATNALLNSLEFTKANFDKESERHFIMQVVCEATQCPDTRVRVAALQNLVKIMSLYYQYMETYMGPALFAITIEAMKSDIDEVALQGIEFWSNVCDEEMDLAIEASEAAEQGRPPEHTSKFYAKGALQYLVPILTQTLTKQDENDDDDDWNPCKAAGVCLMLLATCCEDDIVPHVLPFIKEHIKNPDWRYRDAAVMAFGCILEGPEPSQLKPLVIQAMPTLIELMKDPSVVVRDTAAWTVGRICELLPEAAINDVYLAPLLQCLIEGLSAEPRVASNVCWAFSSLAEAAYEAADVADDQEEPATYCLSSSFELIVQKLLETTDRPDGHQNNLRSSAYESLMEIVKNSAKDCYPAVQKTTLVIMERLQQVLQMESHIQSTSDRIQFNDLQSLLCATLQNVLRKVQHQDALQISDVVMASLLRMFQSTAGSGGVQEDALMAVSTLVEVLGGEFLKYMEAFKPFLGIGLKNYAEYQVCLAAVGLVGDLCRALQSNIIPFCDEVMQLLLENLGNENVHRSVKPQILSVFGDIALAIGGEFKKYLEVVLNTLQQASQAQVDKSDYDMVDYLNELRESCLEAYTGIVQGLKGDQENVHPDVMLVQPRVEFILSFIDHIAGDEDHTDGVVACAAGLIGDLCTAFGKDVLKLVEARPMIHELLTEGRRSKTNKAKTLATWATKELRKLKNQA
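Inhibition scored from the CFP 486 nm/YFP 530 nm FRET ratio 45 min after adding 0.125 microM importin beta to 50 nM Rango biosensor preincubated 5 min with compound (room temperature, PBS with DTT, Tween-20, BSA). No-importin wells as positive control.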
miR-21 reporter – raises the signal of a miR-21 reporter. HeLa miR-21 FLuc reporter, luciferase, 48 h. Potency, µM (top dose mostly 38.3 µM), without a hit: at the top dose reporter change, positive = more light. 340,000 tested, under 10 active; active = well fitted rising curve with a large enough effect; inconclusive = small, poorly fitted or top-dose-only effect; inactive = no such curve, though single readings can be large or run the other way;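 also: % of control where 0% means no effect; miR-21 action dims this reporter so a rising signal means less miR-21 action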
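HeLa miR-21-FLuc reporter line, endogenous miR-21; 2000 cells/well in DMEM/10% FBS; compound titration up to ~40uM final, 48 h, 37 degree Celsius; luciferase detection reagent, 15 min lysis, CCD luminescence.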
Rango dissoc inh – inhibitors of RanGTP-induced Rango-importin beta complex dissociation. Biochemical FRET Rango-importin beta, RanGTP-induced dissociation. Potency, µM (doses to about 46.1 µM), inactives show top-dose activity change, negative = inhibition. actives 0.071% (n = 340,000); active means falling FRET ratio curve, often poorly fitted, with flat reads before Ran was added; inconclusive means other falling curves, or compound fluorescence or quenching; inactive means flat or rising ratio curve;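 also: potency is read from the fitted curve at half-maximal effect; % of control where 0% means no effect; nearly all actives have a fitted effect of over 45% in size; -100% = wells without RanGTP and RCC1; the record marks most hits as doubtful in a second field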
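FRET read at 45 min, room temperature: inhibitors block the CFP/YFP signal rise when RanGTP (0.6 uM Ran, 2 mM GTP, 0.2 uM RCC1) frees Rango (0.1 uM) from importin beta (0.25 uM). Pre-read after 5 min compound exposure flags interference.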
* marks the source's active call; other numbers are inactive results; ? = inconclusive; / = no result given; & = joins results of further samples. Some of the compounds tested, so the mix of outcomes need not match the whole.

SMILES	GLA inh pH 4.5	Rango complex inh	miR-21 reporter	Rango dissoc inh
O=C(O)Cc1ccc(C(=O)c2ccccc2)s1	-4	-2.6%	-4%	-17%
COCC(C)n1c(SCC(=O)N2CCCCC2)nc2ccccc2c1=O (stereo unspecified)	-1	-6.5%	-10%	4%
CCC(CO)Nc1nc(CN2CCCCC2)nc2scc(-c3ccccc3)c12 (stereo unspecified)	-6	0.1%	-3%	2%
Cc1c(C(N)=O)sc(N)c1C(=O)OC(C)C	-6	3.3%	-14%	1%
C/C(O)=C(\C#N)c1nnc2n1CCCCC2	8	0.5%	-1%	-15%
CCOC(=O)c1cccc(NC(=O)Cn2cc3c(n2)CCC(C)C3)c1 (stereo unspecified)	3	3.4%	-10%	0%
CCO[C@H]1OC(C(N)=O)=C[C@@H](C2CC2)[C@@H]1CCCO	/	0.4%	/	6%
CSCCC(NC(=O)c1ccc([N+](=O)[O-])cc1Cl)C(=O)OC(C)C(=O)NCc1ccco1 (stereo unspecified)	/	3.7%	/	?
CN(C)S(=O)(=O)NCC1CCCN(Cc2ccc(-c3ccccc3)cc2)C1 (stereo unspecified)	/	-4.0%	10%	-11%
COc1ccccc1/C=C/C=N/NC(=O)CN1CCN(Cc2ccccc2)CC1	-8	-0.1%	0%	2%

Compounds listed so far with a thiophene ring, fused or not, in the order listed:
SMILES	GLA inh pH 4.5	Rango complex inh	miR-21 reporter	Rango dissoc inh
O=C(O)Cc1ccc(C(=O)c2ccccc2)s1	-4	-2.6%	-4%	-17%
CCC(CO)Nc1nc(CN2CCCCC2)nc2scc(-c3ccccc3)c12 (stereo unspecified)	-6	0.1%	-3%	2%
Cc1c(C(N)=O)sc(N)c1C(=O)OC(C)C	-6	3.3%	-14%	1%

Later entries
SMILES	GLA inh pH 4.5	Rango complex inh	miR-21 reporter	Rango dissoc inh
CCN(C(=O)COC(=O)c1ccccc1O)c1nc2ccccc2s1	/	0.2%	/	-1%
Clc1cccc(CNCCCSc2ncccn2)c1	/	0.9%	-4%	-3%
Cc1ccnc(NC(=O)CCC(=O)N(CC(=O)NC2CCCCC2)Cc2ccccc2)c1	-2	-1.1%	3%	1%
COc1ccc(NC(=O)Nc2ccc(C(C)C)cc2)cc1	11	-1.1%	-39%	-5%
CNC(=S)N/N=C/c1cccc(OCc2ccccc2F)c1	-11	-3.3%	-18%	-11%
CCn1c(=O)n(CC)c2cc(S(=O)(=O)Nc3c(C)cccc3C)ccc21	7	-3.7%	11%	-17%
Cc1cccc2c(=O)cc(C)n(CC(=O)N3CCOCC3)c12	9	-4.8%	0%	2%
Cc1ccc(C2=C(CC(=O)O)C(=O)CC2)cc1	-5	-0.2%	-4%	-13%
CCOc1ccc(-c2cc(C(=O)O)c3ccccc3n2)cc1	6	-2.1%	27%	-14%
CCCn1nnnc1NCc1cccc(OC)c1OC	/	0.1%	-4%	4%
CC1CCCN(S(=O)(=O)c2ccc(NC(=O)[C@@H]3CCCN3C(=O)c3cccs3)cc2)C1 (stereo partly specified)	/	0.5%	/	18%
CCCn1c(SCC(=O)c2cc(OC)ccc2OC)nnc1C(C)C	-2	0.4%	-6%	-11%
CN(C)S(=O)(=O)c1ccc(Cl)c(C(=O)NCc2ccco2)c1	-9	?	-2%	-9%
CCN(CC)C(=O)CSc1nc2ccsc2c(=O)n1CCCC(=O)NCCc1ccc(S(N)(=O)=O)cc1	3	?	-5%	-6%
CCN(CC)S(=O)(=O)c1ccc(C(=O)NCCc2ccccn2)cc1	-9	-4.9%	-19%	-13%
O=C(OCC(=O)N(CCc1ccccc1)Cc1ccccc1)c1ccc(F)c(S(=O)(=O)N2CCOCC2)c1	/	0.8%	/	-4%
CCOC(=O)c1ccc(-c2ccc(/C=N/NC(=O)CN(c3cccc(C)c3)S(C)(=O)=O)o2)cc1	3	1.4%	-32%	-8%
Cc1[nH][nH]c(=O)c1C(c1ccc2c(c1)OCO2)c1c(C)[nH][nH]c1=O	1	2.4%	-5%	20%
COC(=O)c1ccccc1S(=O)(=O)N1CCC(C(=O)NC2CCCCC2)CC1	/	-0.1%	/	-11%
CC(C)N1CCC(=NNc2ccc(S(=O)(=O)N3CCOCC3)cc2[N+](=O)[O-])CC1	1	-2.4%	3%	-14%
Nc1ccc(S(N)(=O)=O)cc1	-1&7	-3.5%	/	2%
CCCC1(C(=O)OC)NC(c2ccc(OC)c(OC)c2)C2C(=O)N(c3cccc(C(C)=O)c3)C(=O)C21 (stereo unspecified)	/	4.7%	3%	24%
O=C(NC(Cc1ccccc1)c1ccc2c(c1)OCCCO2)c1ccc(F)cc1 (stereo unspecified)	-16	-6.2%	-10%	-13%
CCCCCCCCOC(=O)c1nc(Cl)c(Cl)c(N)c1Cl	-5	-0.9%	1%	?
COCCNC(=O)Cn1c(=O)n(C)c2ccccc21	0	0.8%	0%	5%
O=C(Cn1c(=O)oc2cc(S(=O)(=O)N3CCCC3)ccc21)N1CCCC1	5	-0.4%	-5%	11%
CC(C)(C)OC(=O)NNC1CC(=O)N(c2ccccc2F)C1=O (stereo unspecified)	1	-1.3%	-1%	-3%
Oc1cccnc1CN1CCCCC1	/	-0.1%	/	-15%
CCC(C(=O)OCC(=O)Nc1cc(C)ccc1OC)c1ccccc1 (stereo unspecified)	-4	-7.5%	-7%	18%
COc1ccc(C(=O)NCC(=O)N2CCN(C(=O)c3ccco3)CC2)cc1	/	-3.6%	1%	-5%
N/C(=N\OC(=O)Cc1ccccc1)c1ccc([N+](=O)[O-])cc1	-13	?	-34%	3%
CCO[C@H]1OC(C(=O)N2CCCCCCC2)=C[C@@H](c2coc3ccccc3c2=O)[C@@H]1CCCO	1	-0.1%	0%	13%
COc1ccc(S(=O)(=O)N2CCOC2CNC(=O)C(=O)NCCc2ccccc2OC)cc1 (stereo unspecified)	/	3.4%	8%	-1%
CCC(C)[C@H](NC(=O)OC(C)(C)C)C(=O)N/N=C/C1=Cc2ccccc2OC1 (stereo partly specified)	-5	-0.8%	1%	-17%
Clc1ccccc1C1=Nn2c(nnc2-c2ccncc2)SC1	5	1.0%	?	12%
O=C1CN(C(=O)COC(=O)c2ccc([N+](=O)[O-])o2)c2ccccc2N1	/	-3.7%	/	1%
COc1ccc(S(=O)(=O)N2CCN(CCOc3ccccc3Cl)CC2)cc1OC	/	-0.4%	/	-9%
O=[N+]([O-])c1ccc(S(=O)(=O)N2CCN(c3ccnc4cc(Cl)ccc34)CC2)cc1	/	-3.1%	0%	6%
COc1ccc(NC(=O)NCc2ccncc2)c(OC)c1	-5	0.1%	-5%	0%
O=C(CN1C(=O)c2ccc([N+](=O)[O-])cc2C1=O)Nc1ccccc1N1CCCC1	/	0.4%	/	5%

Filtered by structure, the compounds so far with a halogen
SMILES	GLA inh pH 4.5	Rango complex inh	miR-21 reporter	Rango dissoc inh
CSCCC(NC(=O)c1ccc([N+](=O)[O-])cc1Cl)C(=O)OC(C)C(=O)NCc1ccco1 (stereo unspecified)	/	3.7%	/	?
Clc1cccc(CNCCCSc2ncccn2)c1	/	0.9%	-4%	-3%
CNC(=S)N/N=C/c1cccc(OCc2ccccc2F)c1	-11	-3.3%	-18%	-11%
CN(C)S(=O)(=O)c1ccc(Cl)c(C(=O)NCc2ccco2)c1	-9	?	-2%	-9%
O=C(OCC(=O)N(CCc1ccccc1)Cc1ccccc1)c1ccc(F)c(S(=O)(=O)N2CCOCC2)c1	/	0.8%	/	-4%
O=C(NC(Cc1ccccc1)c1ccc2c(c1)OCCCO2)c1ccc(F)cc1 (stereo unspecified)	-16	-6.2%	-10%	-13%
CCCCCCCCOC(=O)c1nc(Cl)c(Cl)c(N)c1Cl	-5	-0.9%	1%	?
CC(C)(C)OC(=O)NNC1CC(=O)N(c2ccccc2F)C1=O (stereo unspecified)	1	-1.3%	-1%	-3%
Clc1ccccc1C1=Nn2c(nnc2-c2ccncc2)SC1	5	1.0%	?	12%
COc1ccc(S(=O)(=O)N2CCN(CCOc3ccccc3Cl)CC2)cc1OC	/	-0.4%	/	-9%
O=[N+]([O-])c1ccc(S(=O)(=O)N2CCN(c3ccnc4cc(Cl)ccc34)CC2)cc1	/	-3.1%	0%	6%

(continued)
SMILES	GLA inh pH 4.5	Rango complex inh	miR-21 reporter	Rango dissoc inh
S=c1nc(NCCc2ccccc2Cl)c2ccccc2[nH]1	/	4.1%	-21%	-11%
Nc1cc(N)nc(CS)n1	11	-1.0%	-3%	-23%
COc1ccc(CN2CCCC(N3CCc4ccccc4C3)C2)c(O)c1 (stereo unspecified)	/	0.1%	2%	12%
N#CC(CCc1ccc([N+](=O)[O-])cc1)(CCc1ccc([N+](=O)[O-])cc1)C(N)=O	/	?	/	?
Cc1cc(Cl)cc(Cl)c1OCCOCCN(C)C	7	-1.4%	-2%	14%
O=C(Cc1n[nH]c(=O)c2ccccc12)Nc1cc(Cl)ccc1-n1cncn1	/	-0.9%	/	-1%
Cc1cccc(-c2sc(Nc3ccccc3)n[n+]2-c2ccc(F)cc2)c1	/	0.0%	-3%	13%
CCN(CC(=O)Nc1cc(Cl)ccc1C)C(=O)CCOc1ccccc1C	/	2.2%	-2%	15%
CC(=O)N1c2ccccc2NC2=C(C(=O)CCC2)C1c1ccco1 (stereo unspecified)	-1	-1.6%	4%	-2%
CCn1c(SC(C)C(=O)O)nc2sc3c(c2c1=O)CCC3 (stereo unspecified)	2	0.6%	-10%	-4%
CC1CCc2cc(F)cc3c(O)c(C(=O)NCCN(C)C)c(=O)n1c23 (stereo unspecified)	/	0.6%	-2%	8%
CCc1cc2cc(C)ccc2nc1SCC(=O)Nc1cc(C)on1	-8	-0.5%	0%	6%
CCN(CC)S(=O)(=O)c1cccc(-c2cn3cc(C)ccc3n2)c1	-6	-0.3%	-21%	-7%
Cc1nnc(SCC(=O)Nc2cccc(S(=O)(=O)N3CCCCC3)c2)s1	/	?	/	-8%
Cc1cc(C)c(NC(=S)N(C)C)cc1C	-2	-1.4%	-16%	0%
COc1cccc(C(c2nnnn2Cc2ccccc2)N2CCN(C3CCCC3)CC2)c1OC (stereo unspecified)	-2	0.2%	11%	2%
N/C(=N\O)c1ccncc1	-6	5.9%	0%	-5%
O=C(C1CCN(S(=O)(=O)N2CCC3(CC2)OCCO3)CC1)N1CCC(Cc2ccccc2)CC1	-4	0.9%	-3%	1%
COc1ccc(NC(=O)c2cccc(N3C(=O)NC4CC3(C)Oc3ccccc34)c2)cc1 (stereo unspecified)	0	2.1%	7%	1%
CCC(=O)OC1(C)C(=O)C=C2C=C(c3ccsc3)OC=C2C1=O (stereo unspecified)	-6&0	?	1%	?

The last 2 records of the part before open the next one:
SMILES	GLA inh pH 4.5	Rango complex inh	miR-21 reporter	Rango dissoc inh
COc1ccc(NC(=O)c2cccc(N3C(=O)NC4CC3(C)Oc3ccccc34)c2)cc1 (stereo unspecified)	0	2.1%	7%	1%
CCC(=O)OC1(C)C(=O)C=C2C=C(c3ccsc3)OC=C2C1=O (stereo unspecified)	-6&0	?	1%	?
CCOc1cc(/C=C/c2ccc3cccc([N+](=O)[O-])c3n2)ccc1O	3	1.7%	-12%	1%
O=C(Nc1ccc(N2CCOCC2)cc1)C1CCCCC1	8	-1.9%	-43%	7%
CCCCNC(=O)[C@H]1C[C@H]1[C@@H](O)[C@H](CO)NC(=O)[C@H](COCc1ccccc1)NC(=O)OC(C)(C)C	/	?	2%	-17%
CC(C)(C)c1ccc2c(c1)OC(C(=O)N/N=C\c1ccc[nH]1)CO2 (stereo unspecified)	/	-3.9%	28%	-13%
CCn1c(SCC(=O)NCc2ccco2)nnc1C1CCCC1	/	0.3%	-5%	2%
Cc1ccc(-n2nnnc2SCC(=O)Nc2nc(-c3ccc(F)cc3)cs2)cc1C	0	0.0%	2%	6%
CC(=O)[C@H]1CCC2C3CC=C4C[C@@H](O)CC[C@]4(C)C3CC[C@@]21C (stereo partly specified)	/	7.8%	/	3%
CN(C(=O)COC(=O)CNC(=O)c1ccc(Cl)cc1Cl)c1ccccc1	-2	-1.7%	-2%	2%
COC(=O)C/C=C/[C@@H](C)[C@@H](/C=N/O[C@H](C)c1cn([C@@H]2COC[C@H]2O)nn1)NS(=O)(=O)c1ccc(C)cc1	0	/	-9%	/
COc1cccc(N2CC(C(=O)Nc3nnc(SCCN4CCOCC4)s3)CC2=O)c1 (stereo unspecified)	/	-2.7%	-4%	-1%
